Rango dissoc inh: prevents RanGTP from dissociating the Rango-importin beta complex; 340,000 tested, 0.071% active; Potency, µM (titrated, usually from 46.1 µM), inactives show top-dose activity change, negative = inhibition; O95149+P62826; Biochemical FRET Rango-importin beta, RanGTP-induced dissociation; active means falling FRET ratio curve, often poorly fitted, with flat reads before Ran was added; inconclusive means other falling curves, or compound fluorescence or quenching; inactive means flat or rising ratio curve;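 also: potency is read from the fitted curve at half-maximal effect; % of control where 0% means no effect; nearly all actives have a fitted effect of over 45% in size; -100% = wells without RanGTP and RCC1; the record marks most hits as doubtful in a second field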
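Rango (0.1 uM)–importin beta (0.25 uM) complex; RanGTP-RCC1 trigger; 45 min RT; CFP/YFP FRET read.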
Rango-impB inh: prevents formation of the Rango-importin beta complex | 340,000 tested, 0.031% active | Rango CFP/YFP FRET sensor + importin beta, 45 min | Q14974 | Potency, µM (series often up to 92.2 µM), for the others: at the top dose inhibition of complex formation; active = rising FRET ratio curve, often small or poorly fitted; inconclusive = mostly compound fluorescence or quenching in the first reads; inactive = flat curves in all reads;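 also: potency is read from the fitted curve at half-maximal effect; 0% = DMSO wells and 100% = buffer wells lacking importin beta; nearly all actives have a fitted effect of over 15% in size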
Target sequence (Q14974 whole entry, looked up): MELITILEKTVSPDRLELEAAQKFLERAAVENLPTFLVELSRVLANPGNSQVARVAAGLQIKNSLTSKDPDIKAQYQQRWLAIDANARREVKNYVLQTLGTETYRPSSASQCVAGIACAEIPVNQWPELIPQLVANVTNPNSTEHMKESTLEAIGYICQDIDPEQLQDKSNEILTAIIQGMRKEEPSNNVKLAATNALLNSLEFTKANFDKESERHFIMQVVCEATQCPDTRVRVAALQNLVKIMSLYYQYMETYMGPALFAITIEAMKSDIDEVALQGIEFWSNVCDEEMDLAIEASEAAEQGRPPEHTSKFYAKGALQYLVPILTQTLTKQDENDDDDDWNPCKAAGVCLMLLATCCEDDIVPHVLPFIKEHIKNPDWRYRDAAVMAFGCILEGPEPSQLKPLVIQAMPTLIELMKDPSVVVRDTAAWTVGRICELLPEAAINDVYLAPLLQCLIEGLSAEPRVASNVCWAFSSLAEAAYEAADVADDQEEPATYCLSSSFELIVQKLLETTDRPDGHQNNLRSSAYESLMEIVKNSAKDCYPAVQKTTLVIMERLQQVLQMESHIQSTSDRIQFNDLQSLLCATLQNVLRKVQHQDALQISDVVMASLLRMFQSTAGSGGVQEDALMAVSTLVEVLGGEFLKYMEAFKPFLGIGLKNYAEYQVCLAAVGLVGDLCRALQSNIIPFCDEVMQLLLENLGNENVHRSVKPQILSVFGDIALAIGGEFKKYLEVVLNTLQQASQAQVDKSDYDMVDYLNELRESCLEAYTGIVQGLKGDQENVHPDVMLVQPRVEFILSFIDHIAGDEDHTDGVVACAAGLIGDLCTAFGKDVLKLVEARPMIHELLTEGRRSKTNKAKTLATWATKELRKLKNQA
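FRET biosensor Rango (snurportin 1 IBB between N-terminal EYFP and C-terminal Cerulean), 50 nM in PBS/1 mM DTT/0.02% Tween-20/0.1% BSA, preincubated 5 min RT with compound; 0.125 microM importin beta added, 45 min RT, CFP/YFP FRET ratio read.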
GLA inh pH 4.5: inhibitors of human alpha-galactosidase A at pH 4.5. purified enzyme, 4-MU-alpha-Gal fluorescence, pH 4.5. activity change, negative = inhibition, % at 105 µM. 230,000 tested, under 10 active. AID 1467; inconclusive = small, poorly fitted or top-dose-only inhibition, or a rising curve; inactive = flat fitted curve, though single readings scatter; no compound was filed as active;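 also: 0% = full activity with enzyme and -100% = basal without enzyme; dose as in the result columns while the protocol names 77 µM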
miR-21 FLuc: raises the signal of a miR-21 reporter; HeLa miR-21 FLuc reporter, luciferase, 48 h; Potency, µM (doses to about 38.3 µM), without a hit: at the highest dose reporter change, positive = more light; 340,000 tested, under 10 active; AID 2288; active = well fitted rising curve with a large enough effect; inconclusive = small, poorly fitted or top-dose-only effect; inactive = no such curve, though single readings can be large or run the other way;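 also: % of control where 0% means no effect; miR-21 action dims this reporter so a rising signal means less miR-21 action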
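HeLa miR-21-FLuc reporter line, endogenous miR-21; 2000 cells/well in DMEM/10% FBS; compound titration up to ~40uM final, 48 h, 37 degree Celsius; luciferase detection reagent, 15 min lysis, CCD luminescence.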
The depositor's hits bear a star; ? = inconclusive; . = not tested or not shown; & = joins results of further samples; [ ] = remark or other dose. The list is partial, so the mix of outcomes need not match the whole.

Start of the listing, in advance, 4 compounds:
Rango dissoc inh	Rango-impB inh	GLA inh pH 4.5	miR-21 FLuc	Compound
10%	0.6%	.	.	CC1CCC(NC(=O)c2cccc(S(=O)(=O)N3CCN(c4ccccc4)CC3)c2)CC1 (stereo not drawn)
1%	-1.3%	-3	4%	COCCn1c(CN(C)Cc2ccccc2)nc2c1c(=O)n(C)c(=O)n2C
2%	1.8%	2	-1%	CC(C)(C)C1CCC2(CC1)CC(=O)c1ccccc1O2 (stereo not drawn)
-2%	-1.8%	12	2%	O=C1c2nc3cc(-c4ccco4)[nH]n3c(=O)c2CN1Cc1ccccc1

The listing (from the top)
Rango dissoc inh	Rango-impB inh	GLA inh pH 4.5	miR-21 FLuc	Compound
10%	0.6%	.	.	CC1CCC(NC(=O)c2cccc(S(=O)(=O)N3CCN(c4ccccc4)CC3)c2)CC1 (stereo not drawn)
1%	-1.3%	-3	4%	COCCn1c(CN(C)Cc2ccccc2)nc2c1c(=O)n(C)c(=O)n2C
2%	1.8%	2	-1%	CC(C)(C)C1CCC2(CC1)CC(=O)c1ccccc1O2 (stereo not drawn)
-2%	-1.8%	12	2%	O=C1c2nc3cc(-c4ccco4)[nH]n3c(=O)c2CN1Cc1ccccc1
4%	-3.9%	-7	0%	O=C(NN=C(Cc1ccccc1)Cc1ccccc1)c1ccncc1
7%	-5.7%	2	0%	CC(C)(C)SCCNC(=O)CN(c1ccc(F)cc1)S(=O)(=O)c1ccccc1
6%	-4.0%	7	-4%	Nc1c2c3c(sc2nc(=O)n1N)CCCC3
4%	-3.0%	-2	-4%	COC(=O)c1cc(C(C)=O)c(C)[nH]c1=O
14%	-1.9%	-1	-2%	O=C(CCS(=O)(=O)c1ccc(Br)cc1)Nc1ccc(Cl)cc1F
-6%	-1.7%	5	0%	CCCCCC(=O)NC(=S)NNC(=O)CC
-12%	-0.4%	-4	1%	CCC1(CC)NC(=O)N(CC(=O)Nc2sc3c(c2C(N)=O)CCC3)C1=O
?	?	.	-10%	N#Cc1c(N)n(Cc2ccccc2)c(=O)c2cc([N+](=O)[O-])ccc12
-1%	-1.4%	.	.	N#Cc1ccccc1OCC(=O)NNC(=O)CNC(=O)c1ccc(Br)o1
2%	1.5%	9	-4%	O=C(O)c1[nH]nc2c1COc1ccccc1-2
12%	-7.5%	.	.	C=CS(=O)(=O)N(Cc1ccccc1)[C@H](CO)CC(C)C
8%	0.2%	.	4%	Cc1ccc(S(=O)(=O)N(C)C)cc1NC(=S)N(C)C1CCN(C)CC1
?	?	.	.	CCCCCCSc1cccc(-c2nc3cc(C)ccn3c2NCc2ccccc2)c1
13%	4.0%	.	-7%	COc1cc(S(=O)(=O)N2CCN(C(=O)c3ccco3)CC2)ccc1Cl
4%	-1.4%	8	-5%	CC(=O)C1=C(O)C(=O)N(CO)C1c1ccccc1F (stereo not drawn)
0%	-0.2%	.	5%	Cc1c(NC(=O)Nc2ccc(F)cc2F)c(=O)n(-c2ccccc2)n1C
-7%	-2.4%	2	-5%	CCOC(=O)c1c(-c2cccs2)csc1N
12%	-5.6%	3	3%	CN(C)S(=O)(=O)N1CCN(CC(=O)Nc2cc(Cl)ccc2Cl)CC1
0%	0.7%	-14	26%	N#Cc1c(Oc2ccc3ccccc3c2)sc(C(=O)c2ccccc2)c1N
-12%	-2.6%	.	.	CCOC(=O)C1CCN(C(=O)COC(=O)CNC(=O)c2ccc(C(C)(C)C)cc2)CC1
2%	-2.1%	-20	-5%	CNC(=S)N(Cc1ccco1)Cc1cc2cc(OC)c(OC)cc2[nH]c1=O
-2%	?	0	3%	CC(Nc1cccc2ccccc12)C(=O)N/N=C/c1ccccn1 (stereo not drawn)
1%	-4.8%	-10	-12%	Cn1ncc2c(Nc3ccccc3Br)ncnc21
?	-2.3%	.	0%	CCOC(=O)C1CCN(C(=O)Cn2c(=O)c3cccn3c3cccnc32)CC1
5%	0.2%	-7	24%	O=C1C=CCC(/C=C/c2ccccc2)O1 (stereo not drawn)
-8%	-0.1%	4	-3%	Cc1noc(C)c1CS(=O)(=O)Cc1ccc(Cl)cc1
-1%	2.6%	1	-5%	CN(c1ncc(C(F)(F)F)cc1Cl)n1cc(C(=O)O)c2ccccc2c1=O
-14%	-1.7%	6	9%	CC(C)(C)NC(=O)C(OC(=O)c1cccs1)c1ccc(C#N)cc1 (stereo not drawn)
-29%	-0.9%	1	2%	CCOc1ccc(NC(=O)N2CCN(Cc3ccc4c(c3)OCO4)CC2)cc1
.	.	-1	-6%	CC(=O)c1ccccc1NC(=O)COC(=O)c1ccc2c(c1)nc(C)n2-c1ccccc1
31%	-0.7%	-2	-9%	CCOC(=O)c1cnn(-c2nc(SC)nc3sc4c(c23)CCC4)c1N
-22%	?	.	5%	COc1ccc(C2c3[nH]c4ccccc4c3C[C@H]3C(=O)N(c4ccccc4C(=O)NCCN4CCOCC4)C(=O)N23)cc1 (stereo partly drawn)
0%	3.2%	3	-4%	COc1ccc(-c2nnc(SCC(=O)Nc3sc4c(c3C#N)CCCC4)n2-c2ccccc2)cc1
-22%	6.5%	-8	0%	Cc1ccccc1-n1c(-c2ccc(=O)[nH]n2)n[nH]c1=S
19%	2.6%	.	-8%	Cc1ccc(OCC(=O)NCCCNC(=O)c2ccco2)cc1C
-15%	?	.	4%	COc1ccc(C(C(=O)NCc2ccc(F)cc2)N(Cc2cccnc2)C(=O)c2snc(C(N)=O)c2N)cc1 (stereo not drawn)
1%	-0.9%	.	.	CCN(CC(=O)NCc1cccs1)C(=O)CCOc1ccccc1
-5%	-3.2%	-6	-4%	CC(C(=O)NCc1ccccn1)N1C(=O)c2ccccc2C1=O (stereo not drawn)
5%	-1.4%	-1	2%	O=C(Cc1c(F)c(F)c(F)c(F)c1F)OC12CC3CC(C1)C(=O)C(C3)C2
-9%	5.6%	.	.	Cc1cc(O)c(C(C)C)cc1NC(=S)Nc1cc(C(C)C)c(O)cc1C
?	-12%	7	-6%	CCOC(=O)/C(C#N)=C/C1=C(N2CCCC2)CC(C)(C)OC1
-23%	-2.9%	-5	20%	CCN(c1ccccc1)S(=O)(=O)c1ccc(C(=O)Nc2nnc(COC)o2)cc1
-12%	-1.3%	.	-3%	COCCNC(=O)CCn1nc(-c2ccc(C)cc2)c2ccccc2c1=O
-11%	0.2%	-13	-30%	O=C(Cc1ccc(Br)cc1)Nc1nc2ccccc2[nH]1
-13%	-0.3%	.	.	CCOc1ccccc1C=NNC(=O)CCCCC(=O)NN=Cc1ccccc1OCC
-7%	1.4%	.	.	O/N=C/c1cc(Br)ccc1OCc1ccccc1F
-13%	-0.1%	.	.	O=C(COC(=O)c1ccc2ncsc2c1)NCc1ccc(F)cc1
-13%	-0.6%	.	.	CC(=O)c1cccc(S(=O)(=O)N2CCC(C(=O)OC3CCOC3=O)CC2)c1 (stereo not drawn)
-11%	-2.2%	.	.	C[C@H](CO)N1C[C@H](C)[C@@H](CN(C)Cc2ccncc2)Oc2c(NC(=O)Cc3ccccc3)cccc2C1=O
?	?	-23	0%	N#CCCN(CCC#N)S(=O)(=O)c1ccc(C(=O)Nc2nc(-c3ccccc3)c(C(=O)c3ccccc3)s2)cc1
-5%	0.9%	-2	13%	CC(Oc1ccc(Br)cc1)C(=O)Nc1ccncc1 (stereo not drawn)
-9%	-1.9%	.	.	CC(OC(=O)c1cc(Br)ccc1O)C(=O)Nc1ccc(S(=O)(=O)N2CCCC2)cc1 (stereo not drawn)
.	.	2	-53%	COc1ccc2nc(/C=N/NC(=O)[C@H](C)NC(=O)OC(C)(C)C)ccc2c1
1%	-0.5%	.	-9%	Clc1cccc(Cl)c1CNCCCSc1ncccn1
1%	-0.1%	-4	10%	CC(C)Oc1ccccc1OCCCOc1cccc2cccnc12
-21%	?	.	?	COc1cccc(N2CCc3c(C)nc4ccc(Cl)cc4c32)c1

New compounds follow.
Rango dissoc inh	Rango-impB inh	GLA inh pH 4.5	miR-21 FLuc	Compound
0%	-2.7%	-10	-1%	CC(=O)Nc1cccc(NS(=O)(=O)c2ccccc2[N+](=O)[O-])c1
-13%	6.7%	8	-26%	N/C(=N\OC(=O)CC1CCCCC1)c1cccnc1
-13%	-0.6%	.	-2%	CCOc1ccc(N2CC(C(=O)NCCc3c[nH]c4ccc(C)cc34)CC2=O)cc1 (stereo not drawn)
-17%	-1.3%	-10	-12%	C/C(CC(=O)Nc1ccc(F)cc1)=N\NC(=O)Cc1csc(N)n1
8%	5.6%	2	-11%	Cc1ccc(N(CC(=O)N/N=C/c2cc(C)n(-c3ccccc3)c2C)S(C)(=O)=O)c(C)c1
4%	-0.1%	3&22&-6	.	CCSC(=N)N
1%	3.0%	-1	0%	CCN(CCCNC(=O)COc1cc(=O)n(C)c2ccccc12)c1ccccc1
2%	2.8%	-4	13%	N#C/C(=N/Nc1ccc(OC(F)(F)F)cc1)C(N)=S
-21%	-4.7%	-4	28%	COc1cccc(/C=N/NC(=O)CNC(=O)C2COc3ccccc3O2)c1O (stereo not drawn)
8%	-0.1%	11	1%	CCN(C(=O)CSc1nnnn1-c1ccccc1)C1CCS(=O)(=O)C1 (stereo not drawn)
2%	-1.6%	-11	-3%	CCN1CCN(c2ncc(C(=O)Nc3c(F)cc(F)cc3Br)c3ccccc23)CC1
0%	-1.9%	.	.	Cc1cccc(Oc2ccc(S(=O)(=O)N3CCCCC3)cc2NC(=O)C2=COCCO2)c1
-4%	1.5%	-3	-46%	COc1ccc(CC(=O)O/N=C(\N)c2ccccn2)cc1
-2%	0.6%	.	.	COc1cccc(Oc2c(C)oc3c(CN4CCOCC4)c(O)ccc3c2=O)c1
1%	-1.8%	.	.	Cc1sc2nc(CN(Cc3ccccc3)C(=O)NC3CCCCC3)[nH]c(=O)c2c1C
-3%	2.2%	-5	-18%	CN(Cc1ccccc1)c1nc(N)c([N+](=O)[O-])c(Nc2cccc(F)c2)n1
-3%	5.4%	.	-34%	Cc1cc(OCCN2CCOCC2)ccc1C(C)C
5%	6.5%	.	.	O=S(=O)(c1cccc(Br)c1)N1CCN(C(=S)NCC2CCCO2)CC1 (stereo not drawn)
6%	1.6%	-6	-2%	Cc1cccc(NC(=O)COC(=O)CNC(=O)C2CCCCC2)c1
-14%	0.5%	-19	-5%	COc1ccc(C(=O)NNC(=O)CN2CCC(n3nnc4cc(F)ccc43)CC2)cc1
15%	1.4%	.	-2%&-4%	CCC1CN(C(=O)NCc2ccccc2)c2cc(Cl)ccc2O1 (stereo not drawn)
13%	2.8%	-7	-10%	CCCn1c(C(O)c2ccc(OC)cc2)nc2ccccc21 (stereo not drawn)
8%	5.4%	-2	-6%	Cc1ccc(NC2OC(CO)C(O)C2O)cc1[N+](=O)[O-] (stereo not drawn)
4%	?	6	-4%	CCOC(=O)c1ccccc1OCc1cc(/C=N/n2cnnc2)ccc1OC
1%	5.6%	3	-2%	Cc1c(C=O)c(=O)n(-c2ccccc2)n1-c1ccccc1
-3%	6.4%	.	.	CCC1CCCCN1C(=O)CN1C(=O)c2ccccc2S1(=O)=O (stereo not drawn)
4%	-2.2%	-2	-42%	O=C(NCc1ccccn1)Nc1ccccc1
6%	-0.6%	-5	7%	O=C(Nc1cccc(F)c1)c1cc(S(=O)(=O)N2CCOCC2)cs1
-2%	1.9%	.	.	NCCCn1c(C(=O)c2cc(Cl)c(N)c(Cl)c2)c2ccc(C(F)(F)F)cc2[n+]1[O-]
?	?	5	9%	COc1ccc(S(=O)(=O)c2c(N)n(Cc3ccco3)c3nc4ccccc4nc23)cc1
-11%	0.1%	.	.	COc1ccc(CC(=O)NCCS(=O)(=O)N2CCN(c3ccccc3)CC2)cc1
-14%	?	?	25%	Cc1nc(C(Cl)(Cl)Cl)nc2[nH]ccc(=O)c12
1%	-1.7%	4	2%	COc1ccc(NC(=O)C(CC(=O)O)Cc2ccc(C)cc2)cc1 (stereo not drawn)
-22%	0.2%	-10[21.1 µM]	2%	COc1ccc(/C=N/NC(=O)c2ccc(N(C)S(=O)(=O)c3ccccc3)cc2)cc1

As a short view, part of the list above:
Rango dissoc inh	Rango-impB inh	GLA inh pH 4.5	miR-21 FLuc	Compound
-11%	-2.2%	.	.	C[C@H](CO)N1C[C@H](C)[C@@H](CN(C)Cc2ccncc2)Oc2c(NC(=O)Cc3ccccc3)cccc2C1=O
?	?	-23	0%	N#CCCN(CCC#N)S(=O)(=O)c1ccc(C(=O)Nc2nc(-c3ccccc3)c(C(=O)c3ccccc3)s2)cc1
